KSHV LANA nucl – inhibitors of KSHV LANA binding to nucleosomes; FITC-LANA1-23 / chicken nucleosome fluorescence polarization; active compounds read low; z-score (test concentration not listed); hit rate 0.3% among 51,000;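 active = both repeat wells score below -2 in polarization z-score versus plate sample wells, excluding overly bright wells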;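 also: 100 nL library stock added to about 30 µL; numbers are from one replicate; some results filed as inactive read as strong as hits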
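Assay system: FITC-LANA peptide and chicken nucleosomes; input: 240 nM purified chicken nucleosomes (480 nM peptide binding sites), final; also added: 50 nM FITC-LANA1-23 probe; medium: TEN-BT buffer, pH 7.5; doses: pin-transferred compound, 100 nL; times: 10–45 min, room temperature; technique: fluorescence polarization; replication: duplicates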
BasE inh – BasE siderophore biosynthesis inhibition. inhibition, % (test concentration not listed). purified BasE, fluorescence polarization binding displacement. hit rate 0.1% among 84,000. AID 485350;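 active = both replicates above 25% with normal brightness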;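 also: 0% = negative plate control signal and 100% = positive plate control signal; stock transfer was 100 nL into about 30 µL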
Starred values were filed as active, the others as inactive; . = not tested or not shown; & = joins results of further samples; ! = not active in a repeat.

Second line of a record – KSHV LANA nucl	BasE inh
- COC(=O)c1ccccc1S(=O)(=O)NC(=O)N(C)c1nc(C)nc(OC)n1
 : .	2.4
- Cc1ccccc1CN1CC2CC(C1)c1cccc(=O)n1C2 (stereo not given)
 : 0.55	-4.2
- CCNC1(c2cccs2)CCCCC1=O (stereo not given)
 : -0.03	-2.2
- CCc1cccc2c(/C=N/O)c[nH]c12
 : .	0.8
- CCOc1ccccc1C1SCC(=O)Nc2c1c(=O)[nH]n2C1CCCC1 (stereo not given)
 : -0.11	0.8
- CCC(C)N1CCN(Cc2ccccc2)CC1 (stereo not given)
 : -0.62	0.2
- C#C[C@]1(O)CC[C@H]2[C@@H]3CCC4=CC(=O)CC[C@]4(C)[C@H]3CC[C@@]21C
 : -0.038	.
- O=C(N/N=C\C1C(=O)NC(=S)N(c2ccccc2)C1=O)c1ccc(O)cc1 (stereo not given)
 : 0.86	3.0
- O=P1(N(CCCl)CCCl)NCCCO1 (stereo not given)
 : 1.8&-0.38&-0.28	3.4
- N#CC1=C(N)Oc2c(c(=O)oc3ccccc23)C1C1CC=CCC1 (stereo not given)
 : 0.24	-0.6
- CN1CCC2(CC1)N=C(c1ccccc1)C(=S)N2
 : 0.61	-1.6
- COC(=O)C1SC2(C(F)(F)F)CC1(O)c1c(c(OC)c3occc3c1OC)O2 (stereo not given)
 : .	0.8
- Cc1cccc(N2CCN(Cc3ccccc3F)CC2)c1C
 : -0.12	-0.8
- CN1CCC(O)(c2cccs2)C(C(=O)c2cccs2)C1 (stereo not given)
 : -0.95	0.6
- N#CCc1ccc(O)cc1
 : .	8.8
- N#CCCn1cc(C(=O)O)c(-c2ccc(Cl)cc2)n1
 : -0.51	0.2
- c1cncc(C2N3CCCN2CC3)c1 (stereo not given)
 : -0.39	3.6
- CN(C)CC1(CC(=O)O)CCCCC1
 : .	0.5
- Cn1c([O-])c([N+](C)(C)C)c(=O)n(C)c1=O
 : -0.042	-1.7
- Cc1cccc(CSc2nc3c(cc2C#N)CN(C)CC3)c1
 : -0.11	-0.7
- COc1cc(CN2CC=C(c3ccc(F)cc3)CC2)cc2c1OCO2
 : 1.3	-0.7
- Clc1ccc(COC(Cn2ccnc2)c2ccc(Cl)cc2Cl)cc1 (stereo not given)
 : 0.38&-0.14&0.81	-0.6&-1.9
- COc1cc2c(cc1O)C(C)NCC2 (stereo not given)
 : -0.51	0.5
- O=C(NC1CCCC1)N(Cc1ccc2c(c1)OCO2)C1CCN(Cc2ccccc2)CC1
 : -0.47	-1.6
- c1ccc(C2CC3CC4(CCCC4)N2O3)cc1 (stereo not given)
 : 0.2	1.9
- COc1ccc(NC(=O)C2c3ccccc3C(=O)N3CCCCC23)cc1OC (stereo not given)
 : 0.99	0.7
- O=[N+]([O-])c1ccc(O)c([N+](=O)[O-])c1
 : -0.4	0.5
- O=C(O)CP(=S)(c1ccccc1)c1ccccc1
 : .	-0.8
- Cc1ccc(C)n1C(Cc1cnc[nH]1)C(=O)O (stereo not given)
 : -0.51	1.9
- CC(C)OP(=S)(OC(C)C)OC(C)C
 : 0.35	-2.0
- Cc1cccc(N2CCNCC2)c1
 : .	4.3
- Fc1ccc(NC(=S)NC2CN3CCC2CC3)cc1 (stereo not given)
 : .	-0.3
- CCN1CCN(Cc2ccccc2Cl)CC1
 : 0.001	1.6
- N#Cc1cc2c(nc1SCC(=O)Nc1ccc(Cl)cc1)C1CCN2CC1
 : -1	1.4
- C=C(C)C1CC=C(CN(C)C2CCN(C)CC2)CC1 (stereo not given)
 : -0.27	-0.5
- O=CNc1nonc1NNc1nonc1NC=O
 : 1.9	0.2
- Cc1nnc2n1-c1ccc(Cl)cc1C(c1ccccc1)=NC2
 : 1.2	.
- O=C1NCCN2CCCC12 (stereo not given)
 : 0.28	-0.8
- O=C1C=Cc2ccc3c4c(ccc1c24)C=CC3=O
 : 0.79	3.3
- CC(C)C[C@H]1C(=O)N2CCC[C@H]2[C@]2(O)O[C@](NC(=O)[C@@H]3C=C4c5cccc6[nH]cc(c56)C[C@H]4N(C)C3)(C(C)C)C(=O)N12
 : 1.8	2.1
- COCCNC(=O)CN1C2CCC1CC(O)(c1cccnc1)C2 (stereo not given)
 : -0.28	1.8
- CC1=CC(=O)C2=C(C)CC(O)C3C(C)C(=O)OC3C12 (stereo not given)
 : -0.029	2.0
- CC(=O)N1CCC(C(=O)O)(c2ccccc2)CC1
 : .	1.6
- C#CC1(O)CCC2C3CCC4=CC(=O)CCC4(C)C3CCC21C (stereo not given)
 : -0.045&0.61	-2.1
- NC(=S)N/N=C/c1coc2ccccc2c1=O
 : -0.55	2.7
- Cn1c(C=C(C#N)C#N)ccc1S(C)(=O)=O
 : 0.46	1.6
- CN(C)C(=O)Oc1ccc(OC(=O)N(C)C)cc1
 : -0.7	3.5
- CC[C@@]1(O)C(=O)OCc2c1cc1n(c2=O)Cc2cc3c(O)cccc3nc2-1
 : -3.1*!	9.0
- CC1CCCN(C(=O)CN2C3CCC2CC(O)(c2cccnc2)C3)C1 (stereo not given)
 : 0.51	-1.2
- CCCCn1nc(C)c(C(=O)O)c1Cl
 : .	-0.3
- CN(C)Cc1c(O)[nH]c(=S)[nH]c1=O
 : 0.014	3.0
- N=c1c[n+](CCc2ccccc2)[n-]o1
 : .	2.2
- CC(=O)Nc1ccccc1OC(=O)N(C)C
 : 0.26	0.2
- Cc1ccc(NC(=S)NC2CN3CCC2CC3)cc1 (stereo not given)
 : .	1.6
- CS(=O)(=O)Nc1ccc(Cc2noc(-c3ccc4[nH]cc(CCN)c4c3)n2)cc1
 : -0.57	.
- CC1Cc2ccccc2CN1 (stereo not given)
 : -0.72	0.6
- O=C1NC(=O)C(C(c2ccccc2)c2ccccc2)C(=O)N1
 : 1	-3.1
- C/C=C1/C[C@@H](C)[C@](O)(CO)C(=O)OCC2=CCN3CC[C@@H](OC1=O)[C@@H]23
 : 0.23	-0.6
- COc1ccc(CN2CCNCC2CCO)c(C)c1C (stereo not given)
 : 0.65	-2.7
- COc1cc(C2=NC(O)C(=O)Nc3ccc(Cl)cc32)ccc1O (stereo not given)
 : .	-0.8

(continued)
Second line of a record – KSHV LANA nucl	BasE inh
- c1ccc(CCN2CCOCC2)cc1
 : 0.04	-1.9
- CN(C(=O)Oc1cccc2cccnc12)c1ccccc1
 : .	-1.8
- NCC1(CC(=O)O)CCCCC1
 : -0.053&0.28	0.5
- CC[C@H]1CN2CCc3cc(OC)c(OC)cc3[C@@H]2C[C@@H]1C[C@H]1NCCc2cc(O)c(OC)cc21
 : -0.98	-0.9
- CN(C)c1ccc(/C=C2/C(=O)NC(=O)N(C3CCCCC3)C2=O)cc1
 : -1	23
- CC12CN3CC(c4ccccc4)(CN(C1)C31CCCCC1)C2=O
 : -1.6	1.7
- FC(F)(F)/C(=N\P(=S)(N1CCOCC1)N1CCOCC1)N1CCOCC1
 : .	2.6
- CC1CCP(=S)(N(C)C)O1 (stereo not given)
 : -0.16	-0.4
- N#CCCn1cc(C(=O)Oc2ccccc2)c(-c2cccc(Br)c2)n1
 : 3.1	-5.5
- CC1=NCCc2c1[nH]c1cc(O)ccc21
 : -7.2&-9.6	15&42
- COc1cc(-c2nnc(COC(=O)C(O)(c3ccccc3)c3ccccc3)o2)cc(OC)c1OC
 : .	-0.8
- CC1(C)CN=C(Nc2ccc(C(F)(F)F)cc2)S1
 : -0.31	1.8
- CCOc1ccc(N(C(C)=O)C2=NCCCS2)cc1
 : 2.4	-3.9
- Cc1cc(C=C(C#N)C#N)c(C)n1C1CCCC1
 : -0.13	1.8
- CCCN1CCN(C(=O)Cc2csc(-c3ccc(OC)c(OC)c3)n2)CC1
 : .	-2.8
- CCn1c(O)c(C=Nc2ccc(S(N)(=O)=O)cc2)c(=O)[nH]c1=S
 : 2	-0.1
- COc1ccc(C=C(C#N)C#N)cc1Br
 : 0.92	-1.2
- COc1ccc(C=C2C(=O)NC(=S)NC2=O)cc1
 : 0.0085	-1.6
- Clc1ccc(CCC(Cn2ccnc2)Sc2c(Cl)cccc2Cl)cc1 (stereo not given)
 : 0.84	-4.3
- CC(=O)Nc1ccc(NC(=O)CN2CC=C(c3ccccc3)CC2)cc1
 : .	-2.5
- C[C@]12CC(=CO)C(=O)C[C@@H]1CC[C@@H]1[C@@H]2CC[C@@]2(C)[C@H]1CC[C@]2(C)O
 : 0.072	.
- CCC1NCCc2c1[nH]c1ccccc21 (stereo not given)
 : 0.38	.
- CCCCP(=O)(O)c1ccccc1
 : 0.28	-2.0
- N#CC1=C(N)Oc2c(c(=O)oc3ccccc23)C1c1ccccc1 (stereo not given)
 : 1.1	-0.5
- CC12CC[C@H]3[C@@H](CCC4(O)C[C@H](O)CCC34/C=N/NC(N)=O)C1(O)CCC2C1=CC(=O)OC1 (stereo not given in full)
 : -0.31	1.6
- O=C(Cn1c(=O)oc2cc(Cl)ccc21)N1CCC2(CC1)OCCO2
 : 2.6	1.0
- S=c1[nH]nc(CCN2CCN(c3ccc(Cl)cc3)CC2)n1-c1ccccc1
 : 0.51	-1.4
- O=C(Cc1ccccc1)OCn1nnc2ccccc2c1=O
 : -0.5	1.7
- CC1CCCCN1CC(=O)c1cc(Cl)ccc1Cl (stereo not given)
 : .	0.4
- CC(=O)Nc1cc(C(=O)N2CCC3(CC2)OCCO3)ccc1S(=O)(=O)c1ccc(Cl)cc1
 : 0.41	1.5

One compound at a time (already shown). Screens in order: KSHV LANA nucl, BasE inh
O=P1(N(CCCl)CCCl)NCCCO1 (stereo not given) is listed with 1.8&-0.38&-0.28, 3.4
CC1=NCCc2c1[nH]c1cc(O)ccc21 is listed with -7.2&-9.6, 15&42

Compounds from the list above with fluorine (six):
Second line of a record – KSHV LANA nucl	BasE inh
- COC(=O)C1SC2(C(F)(F)F)CC1(O)c1c(c(OC)c3occc3c1OC)O2 (stereo not given)
 : .	0.8
- Cc1cccc(N2CCN(Cc3ccccc3F)CC2)c1C
 : -0.12	-0.8
- COc1cc(CN2CC=C(c3ccc(F)cc3)CC2)cc2c1OCO2
 : 1.3	-0.7
- Fc1ccc(NC(=S)NC2CN3CCC2CC3)cc1 (stereo not given)
 : .	-0.3
- FC(F)(F)/C(=N\P(=S)(N1CCOCC1)N1CCOCC1)N1CCOCC1
 : .	2.6
- CC1(C)CN=C(Nc2ccc(C(F)(F)F)cc2)S1
 : -0.31	1.8

Next part:
Second line of a record – KSHV LANA nucl	BasE inh
- CCCCN1CCC(O)(c2ccccc2)C(C(=O)c2ccccc2)C1 (stereo not given)
 : -0.099	1.6
- N#CCN1CCN(Cc2ccccc2)CC1
 : .	2.1
- N#Cc1cc2c(nc1SCC(=O)NCc1ccc(F)cc1)C1CCN2CC1
 : 1.3	-1.6
- O=C1NC2(CCNCC2)N=C1c1ccc(Cl)cc1
 : 0.36	-5.1
- CC(C)NC(C)C(=O)c1ccc2ccccc2c1 (stereo not given)
 : -0.51	-0.8
- Cc1cc(C)c(C=C(C#N)C#N)[nH]1
 : -0.63	1.8
- CC(=O)N1CCCSC1=Nc1ccccc1
 : .	-2.8
- CCOC(=O)c1c(C)n(Cc2ccccc2)c2ccc(OCC(O)CN3C(=O)CNC3=O)cc12 (stereo not given)
 : 0.41	-2.5
- CCN(CC)C(=O)c1ccc(N2C(=O)C3C4C=CC(C4)C3C2=O)cc1 (stereo not given)
 : 0.7	-0.7
- O=C1NC(=S)NC(=O)C1C1CCCCC1
 : -0.7	1.3
- CC(NC(=O)Cc1cccc2ccccc12)C(=O)N1CCC(=O)CC1 (stereo not given)
 : .	-2.3
- CCN(CC)P1(=S)OC(C)(C)CC1(C)O (stereo not given)
 : 0.083	0.7
- COc1ccc(/C=C2\C(=O)C3CCN2CC3)cc1
 : -0.05	.
- CN1CCC(C#N)(c2ccccc2)CC1
 : -0.069	1.1
- CC(C)CNC1CCC(O)CC1 (stereo not given)
 : .	-0.1
- OCC1(CO)COC(c2cccnc2)N1 (stereo not given)
 : 0.44	-2.3
- CC[N+]12CCC(CC1)C(C(O)(c1ccccc1)c1ccccc1)C2 (stereo not given)
 : .	-1.7
- Cc1ccc(N/N=C/c2c(O)n(-c3ccccc3)c(=O)[nH]c2=O)cc1
 : -0.32	1.9
- CCN1CCN(Cc2cc(Br)c(O)c(OC)c2)CC1
 : -0.6	0.0
- CN(C)C(C#N)c1cn(C)c2ccccc12 (stereo not given)
 : -1.3	1.9
- Brc1cccc(CN2CCN(Cc3cccc(Br)c3)CC2)c1
 : .	2.0
- CN1C[C@H](CO)C=C2c3cccc4[nH]cc(c34)C[C@H]21
 : -0.011	1.4
- CCOP1(=S)Oc2cc(Cl)ccc2C(C(F)(F)F)(C(F)(F)F)O1 (stereo not given)
 : .	2.3
- Cc1noc(C2CCCNC2)n1 (stereo not given)
 : -0.96	1.4
- O=C1NC(=S)NC(=O)C1=Cc1ccco1
 : 0.23	2.1
- COc1cc(CN2CCN(c3cccc(Cl)c3)CC2)ccc1O
 : 1.2	1.2
- CC(=O)O[C@@H]1CC[C@]2(C)C3CC[C@]4(C)C(=O)CCC4C3CC[C@H]2C1 (stereo not given in full)
 : -0.3	-2.0
- c1csc(C2NCCc3[nH]cnc32)c1 (stereo not given)
 : 0.45	.
- Cc1ccc2c(c1)C(c1ccccc1)NCC(=O)N2 (stereo not given)
 : -0.65	0.8
- CC(N)Cc1cccs1 (stereo not given)
 : 0.042	-1.3
- COC(=O)NP(=O)(NNc1ccccc1)OC (stereo not given)
 : .	-0.9
- CNC(=O)O/N=C/c1nn(C(C)=O)cc1Br
 : -0.35	-2.5
- CCC(=O)c1ccc(OC)c(F)c1
 : 0.46	.
- C/C=C1\CC(C)C(C)(O)C(=O)OCC2CCN3CCC(OC1=O)C23 (stereo not given)
 : 0.4	2.2
- CCOC(=S)SCc1nc2ccccc2c(=O)n1-c1ccccc1
 : .	0.6
- CCc1c(O)n(C2CCCCC2)c(=S)[nH]c1=O
 : -0.41	2.2
- CC(C)(C)NCC(O)c1ccccc1Cl (stereo not given)
 : 0.78&-0.58	-2.6

Only part of the results is shown; count on the stated rates, not on these rows.
